Screens: PubChem BioAssay, Broad Institute
Yeast_UUG_start: alters start codon recognition fidelity in yeast. actives 0.13% (n = 350,000). S. cerevisiae UUG-firefly luciferase reporter, luminescence/redox ratio. AID 602363. activity score, % at 18.7 µM;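 active = replicate mean at a twofold rise or more, about +100% in these data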;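 note: firefly luciferase made from a UUG start codon reports start codon fidelity; reporter light over untreated wells divided by growth signal over untreated wells; some hits fall short of that in this replicate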
HIV_Env_fusion: inhibitors of HIV Env-mediated cell fusion. HeLa-JRFL Env/CEM21 cell fusion, luciferase. inhibition, % at 12.3 µM. actives 1.1% (n = 360,000). AID 651610;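 active = mean replicate inhibition score of at least 50 and every replicate individually at or above 50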;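 note: 0% = plate neutral controls and 100% = maraviroc near 300 nM; one replicate is shown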
Active calls of the source: *; & = joins results of further samples; [ ] = another dose, or the depositor's remark. An excerpt. The share of hits here may be higher or lower than overall.

SMILES Yeast_UUG_start HIV_Env_fusion
CC(C)NC(=O)Nc1ccc2c(c1)C(=O)N([C@H](C)CO)C[C@H](C)[C@@H](CN(C)Cc1ccc3c(c1)OCO3)OCCCC[C@H](C)O2 -7.9 13.9[16.7_µM]
C[C@@H]1CN([C@H](C)CO)C(=O)Cc2cc(N(C)C)ccc2O[C@@H]1CN(C)S(C)(=O)=O -4.3 -5.7[16.7_µM]
CC(C)NC(=O)N(C)C[C@@H]1Oc2ncc(C#Cc3ccc(F)cc3)cc2C(=O)N([C@H](C)CO)C[C@@H]1C 14.5&3.4 -5.0&-20.0[16.7_µM]
Cc1ccc(S(=O)(=O)N(C)C[C@@H]2Oc3ccc(NC(=O)Nc4c(C)noc4C)cc3CC(=O)N([C@@H](C)CO)C[C@H]2C)cc1 12.8 6.5[16.7_µM]
C[C@H]1CN([C@@H](C)CO)C(=O)c2cc(NS(C)(=O)=O)ccc2O[C@@H]1CN(C)CC1CC1 5.6 -0.6[16.7_µM]
C[C@@H]1CN([C@H](C)CO)C(=O)c2cc(C#CCc3ccccc3)cnc2O[C@@H]1CN(C)Cc1cccnc1 2.4 -5.6[16.7_µM]
O=C(NCC[C@H]1CC[C@@H](NS(=O)(=O)c2ccc(Oc3ccccc3)cc2)[C@H](CO)O1)C1CC1 1.4 1.1[16.7_µM]
C[C@H](O)C#Cc1cnc2c(c1)C(=O)N([C@@H](C)CO)C[C@H](C)[C@@H](CN(C)CC1CCCC1)O2 -4.7 -21.8[16.7_µM]
O=C(N[C@@H]1CC[C@@H](CCNC(=O)C2CCCC2)O[C@H]1CO)c1ccncc1 -6.4 10.3[16.7_µM]
C[C@H]1CCCCO[C@@H](CN(C)C)[C@@H](C)CN([C@@H](C)CO)C(=O)c2cc(NS(=O)(=O)c3ccccc3)ccc2O1 -0.9 4.7[16.7_µM]
C[C@@H]1CN([C@@H](C)CO)C(=O)c2cc(C#C[C@@H](C)O)cnc2O[C@@H]1CN(C)C(=O)c1ccc(F)cc1 5.8 1.3[16.7_µM]
O=C(C[C@H]1C[C@H]2c3cc(NC(=O)C4CCOCC4)ccc3O[C@H]2[C@H](CO)O1)NCc1cccc(F)c1 -3.9 -8.1[16.7_µM]
COCC(=O)N(C)C[C@H]1Oc2cc(C#CC(C)C)ccc2S(=O)(=O)N([C@@H](C)CO)C[C@H]1C -2.5 -18.2[16.7_µM]
C[C@H]1CN([C@@H](C)CO)C(=O)Cc2cc(NS(=O)(=O)c3ccc(Cl)cc3)ccc2O[C@@H]1CN(C)S(=O)(=O)c1ccc(F)cc1 16.9 12.8[16.7_µM]
Cc1noc(C)c1S(=O)(=O)Nc1ccc2c(c1)C(=O)N([C@H](C)CO)C[C@@H](C)[C@@H](CN(C)C)OCCCC[C@H](C)O2 -0.6 -3.4[16.7_µM]
Cc1cccc(S(=O)(=O)N2C[C@@H](O)COC[C@@H]3O[C@H](CC(=O)Nc4ccc(-c5ccccc5)cc4)CC[C@H]32)c1 -1.0 0.9[16.7_µM]
C[C@H]1CN([C@@H](C)CO)S(=O)(=O)c2ccc(/C=C/c3ccccc3)cc2O[C@@H]1CN(C)Cc1cncnc1 -12.2 15.7[16.7_µM]
CCNC(=O)C[C@H]1CC[C@@H]2[C@@H](COc3ccc(NC(=O)c4cc(C)on4)cc3C(=O)N2C)O1 6.1 -1.4[16.7_µM]
O=C(CN1CCOCC1)NCC[C@H]1CC[C@@H](NC(=O)Nc2ccc(C(F)(F)F)cc2)[C@@H](CO)O1 -3.4 12.0[16.7_µM]
CCC(=O)N[C@H]1C=C[C@@H](CC(=O)NCc2cc(F)cc(F)c2)O[C@@H]1CO -2.4 -8.8[16.7_µM]
CC(C)C#Cc1cnc2c(c1)C(=O)N([C@H](C)CO)C[C@@H](C)[C@@H](CN(C)C(=O)c1cccc(F)c1)O2 10.8 -0.2[16.7_µM]
COc1ccccc1-c1ccc2c(c1)O[C@@H](CN(C)CC1CCOCC1)[C@H](C)CN([C@H](C)CO)S2(=O)=O 3.1 -13.5[16.7_µM]
O=C(C[C@@H]1C[C@H]2c3cc(NC(=O)Nc4ccc(F)cc4)ccc3O[C@H]2[C@H](CO)O1)NCC1CC1 15.9 94.8*[16.7_µM]
Cc1noc(C)c1NC(=O)N(C)C[C@@H]1Oc2ncc(/C=C/c3ccccc3)cc2C(=O)N([C@H](C)CO)C[C@@H]1C 6.4 -10.5[16.7_µM]

Reprinted from the part before: 4 entries, then new ones.
SMILES Yeast_UUG_start HIV_Env_fusion
CC(C)C#Cc1cnc2c(c1)C(=O)N([C@H](C)CO)C[C@@H](C)[C@@H](CN(C)C(=O)c1cccc(F)c1)O2 10.8 -0.2[16.7_µM]
COc1ccccc1-c1ccc2c(c1)O[C@@H](CN(C)CC1CCOCC1)[C@H](C)CN([C@H](C)CO)S2(=O)=O 3.1 -13.5[16.7_µM]
O=C(C[C@@H]1C[C@H]2c3cc(NC(=O)Nc4ccc(F)cc4)ccc3O[C@H]2[C@H](CO)O1)NCC1CC1 15.9 94.8*[16.7_µM]
Cc1noc(C)c1NC(=O)N(C)C[C@@H]1Oc2ncc(/C=C/c3ccccc3)cc2C(=O)N([C@H](C)CO)C[C@@H]1C 6.4 -10.5[16.7_µM]
Cc1ccc(S(=O)(=O)Nc2ccc3c(c2)C(=O)N([C@H](C)CO)C[C@@H](C)[C@H](CN(C)S(=O)(=O)c2ccc(C)cc2)OCCCC[C@H](C)O3)cc1 -9.7 -16.0[16.7_µM]
COc1ccc(NC(=O)N(C)C[C@@H]2OCCCC[C@@H](C)Oc3ccc(N(C)C)cc3C(=O)N([C@@H](C)CO)C[C@@H]2C)cc1 7.6 -12.0[16.7_µM]
O=C(C[C@@H]1C[C@@H]2c3cc(NC(=O)C4CCOCC4)ccc3O[C@@H]2[C@H](CO)O1)NCC1CC1 -0.3 -8.5[16.7_µM]
O=C(C[C@@H]1C=C[C@@H](NC(=O)Nc2cccc(F)c2)[C@H](CO)O1)NCC1CC1 -12.7 23.4[16.7_µM]
C[C@H](CO)N1C[C@H](C)[C@@H](CN(C)CC2CC2)Oc2c(NC(=O)Nc3ccc(C(F)(F)F)cc3)cccc2C1=O -7.5 4.6[16.7_µM]
C[C@H](CO)N1C[C@H](C)[C@H](CN(C)S(=O)(=O)c2cn(C)cn2)Oc2ncc(C3=CCCC3)cc2C1=O -4.4 -12.0[16.7_µM]
CNC[C@H]1Oc2cc(C#CC3CCCC3)ccc2S(=O)(=O)N([C@H](C)CO)C[C@@H]1C 0.9 5.8[16.7_µM]
C[C@H](CO)N1C[C@H](C)[C@@H](CN(C)Cc2ccc(-c3ccccc3)cc2)Oc2ccc(NC(=O)NC3CCCCC3)cc2CC1=O -2.9 21.5[16.7_µM]
C[C@@H]1CCCCO[C@@H](CN(C)Cc2ccc(C(F)(F)F)cc2)[C@@H](C)CN([C@H](C)CO)C(=O)c2cc(NS(=O)(=O)c3cn(C)cn3)ccc2O1 3.1 -1.9[16.7_µM]
CNC(=O)C[C@H]1CC[C@H]2[C@H](COc3ccc(NC(=O)Nc4ccc(F)c(F)c4)cc3C(=O)N2C)O1 27.5 -9.2[16.7_µM]
C[C@H]1CN([C@@H](C)CO)C(=O)Cc2cc(NS(=O)(=O)c3ccc(F)cc3)ccc2O[C@H]1CN(C)Cc1ccc(C(=O)O)cc1 -10.4 -2.5[16.7_µM]
C[C@H]1CN([C@@H](C)CO)S(=O)(=O)c2ccc(C#CC3CCCC3)cc2O[C@H]1CN(C)C(=O)C1CC1 28.7 -1.4[16.7_µM]
COc1ccc(NC(=O)Nc2ccc3c(c2)C(=O)N([C@H](C)CO)C[C@@H](C)[C@H](CN(C)Cc2ccccc2)OCCCC[C@@H](C)O3)cc1 14.1 -43.5[16.7_µM]
Cc1noc(C)c1S(=O)(=O)Nc1ccc2c(c1)C(=O)N([C@@H](C)CO)C[C@@H](C)[C@@H](CN(C)C(=O)Nc1ccc3c(c1)OCO3)OCCCC[C@H](C)O2 7.0 9.7[16.7_µM]
C[C@@H]1CN([C@@H](C)CO)C(=O)Cc2cc(NC(=O)C3CCCCC3)ccc2O[C@H]1CN(C)Cc1ccc(Cl)c(Cl)c1 3.7 43.1[16.7_µM]
C[C@@H]1CCCCO[C@@H](CN(C)S(=O)(=O)c2cccs2)[C@@H](C)CN([C@@H](C)CO)C(=O)c2cc(NC(=O)CCC(F)(F)F)ccc2O1 12.8 3.8[16.7_µM]
CCNC(=O)C[C@H]1CC[C@H](NS(=O)(=O)c2ccc(F)cc2)[C@H](CO)O1 -13.5 -129.8[16.7_µM]
CCC(=O)N(C)C[C@@H]1Oc2cc(C#CCOC)ccc2S(=O)(=O)N([C@H](C)CO)C[C@H]1C 5.2 -2.9[16.7_µM]
C[C@H]1CN([C@@H](C)CO)C(=O)c2cc(-c3cccnc3)cnc2O[C@@H]1CN(C)C(=O)C1CC1 -4.3 1.2[16.7_µM]
O=S(=O)(N[C@@H]1CC[C@H](CCn2cc(-c3cccc(F)c3)nn2)O[C@H]1CO)c1ccccc1 -8.4 10.5[16.7_µM]
C[C@H]1CN([C@@H](C)CO)C(=O)c2cccc(NC(=O)C3CC3)c2O[C@H]1CN(C)S(C)(=O)=O -1.4 -0.8[16.7_µM]
CO[C@H]1CN(C)C(=O)c2ccc(NS(C)(=O)=O)cc2OC[C@H](C)N(CCC(F)(F)F)C[C@H]1C -2.0 3.1[16.7_µM]
C[C@H](CO)N1C[C@H](C)[C@@H](CN(C)Cc2ccccn2)Oc2cc(C3=CCCCC3)ccc2S1(=O)=O -15.0 -13.0[16.7_µM]
C[C@H]1CN([C@@H](C)CO)C(=O)c2cc(C#CC3CCCC3)cnc2O[C@H]1CN(C)C(=O)Nc1ccccc1 4.3 -34.1[16.7_µM]
COc1ccc(CN(C)C[C@@H]2Oc3ccc(NC(=O)CCC(F)(F)F)cc3CC(=O)N([C@H](C)CO)C[C@H]2C)cc1 3.2 -17.1[16.7_µM]
CO[C@@H]1CN(C)C(=O)c2cc(NC(=O)c3cc(C)on3)ccc2OC[C@H](C)N(C)C[C@@H]1C -10.4 -1.3[16.7_µM]
C[C@H]1CN([C@@H](C)CO)C(=O)c2cccc(NS(=O)(=O)c3ccccc3)c2O[C@@H]1CN(C)S(=O)(=O)c1ccc(Cl)cc1 -10.3 2.1[16.7_µM]
CCCNC(=O)C[C@H]1C[C@@H]2c3cc(NS(=O)(=O)c4ccc(F)cc4)ccc3O[C@@H]2[C@H](CO)O1 5.5 14.1[16.7_µM]
C[C@@H]1CN([C@@H](C)CO)C(=O)Cc2cc(NS(=O)(=O)c3cccs3)ccc2O[C@@H]1CN(C)C(=O)Nc1ccc(C(F)(F)F)cc1 -7.1 0.9[16.7_µM]
C[C@H](CO)N1C[C@H](C)[C@H](CN(C)C(=O)Nc2ccc3c(c2)OCO3)Oc2c(NS(=O)(=O)c3ccc(Cl)cc3)cccc2C1=O 4.7 -35.3[16.7_µM]
O=C(C[C@@H]1CC[C@@H](NC(=O)C2CCOCC2)[C@H](CO)O1)Nc1ccc(-c2ccccc2)cc1 0.3 6.2[16.7_µM]
C[C@@H]1CCCCO[C@@H](CN(C)Cc2ccc3c(c2)OCO3)[C@H](C)CN([C@H](C)CO)C(=O)c2cc(NC(=O)Nc3ccc4c(c3)OCO4)ccc2O1 10.1 -21.3[16.7_µM]

Four compounds picked at random from those above:
SMILES Yeast_UUG_start HIV_Env_fusion
C[C@H](CO)N1C[C@H](C)[C@H](CN(C)C(=O)Nc2ccc3c(c2)OCO3)Oc2c(NS(=O)(=O)c3ccc(Cl)cc3)cccc2C1=O 4.7 -35.3[16.7_µM]
COc1ccc(CN(C)C[C@@H]2Oc3ccc(NC(=O)CCC(F)(F)F)cc3CC(=O)N([C@H](C)CO)C[C@H]2C)cc1 3.2 -17.1[16.7_µM]
O=C(C[C@@H]1CC[C@@H](NC(=O)C2CCOCC2)[C@H](CO)O1)Nc1ccc(-c2ccccc2)cc1 0.3 6.2[16.7_µM]
C[C@@H]1CN([C@@H](C)CO)C(=O)Cc2cc(NS(=O)(=O)c3cccs3)ccc2O[C@@H]1CN(C)C(=O)Nc1ccc(C(F)(F)F)cc1 -7.1 0.9[16.7_µM]
